CtBP-E1A blk: qHTS Assay for Inhibitors of the CtBP/E1A Interaction | 340,000 tested, 0.49% active | AID 651724, 2012 | CtBP / adenovirus E1A interaction (AlphaScreen) | AlphaScreen GST-E1A/His-CtBP binding, 1536-well; stronger effect = lower value; control for the full effect not named in the record | activity change, % (test concentration not listed); in the data active means activity change below about -65%; inconclusive means about -30% to -65%; inactive means above about -30%; also: % is scaled to controls: 0 for no effect and ±100 for the full control effect; compound concentration not given in the record
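GST-E1A and His-tagged CtBP (125 nM each as 5X stock) were preincubated with pin-transferred compound for 2 h at 37 °C in the dark, then glutathione donor and nickel acceptor beads were added for 1 h before AlphaScreen reading.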
D2 agonist: Beta-Arrestin HTS for Positive Allosteric Modulators of the Human D2 Dopamine Receptor: Agonists | D(2) dopamine receptor (Homo sapiens), P14416 | DiscoveRx PathHunter D2 beta-arrestin, luminescence, 90 min; 100% = 57 uM dopamine signal | activation, % (test concentration not listed) | 360,000 tested, 0.084% active | AID 624465, 2012; in the data active = activation above about 40%; inconclusive = about 15% to 40%; inactive = below about 15%; also: compound concentration not given in the record; the text of the record calls up to 30% inactive
Target sequence (P14416 whole entry, looked up): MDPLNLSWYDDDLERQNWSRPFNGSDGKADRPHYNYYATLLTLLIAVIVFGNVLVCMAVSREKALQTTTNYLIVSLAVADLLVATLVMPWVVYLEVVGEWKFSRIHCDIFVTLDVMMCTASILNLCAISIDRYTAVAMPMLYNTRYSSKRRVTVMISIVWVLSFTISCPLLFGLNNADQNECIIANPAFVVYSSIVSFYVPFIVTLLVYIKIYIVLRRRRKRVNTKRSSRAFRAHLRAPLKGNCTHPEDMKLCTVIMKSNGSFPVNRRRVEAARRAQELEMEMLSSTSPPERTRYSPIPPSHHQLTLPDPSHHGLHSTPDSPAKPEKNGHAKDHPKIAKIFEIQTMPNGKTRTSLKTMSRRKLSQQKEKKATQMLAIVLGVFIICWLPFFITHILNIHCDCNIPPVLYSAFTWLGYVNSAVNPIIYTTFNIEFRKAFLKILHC
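DiscoveRx PathHunter D2 beta-arrestin cells (2,100/well) attached overnight, then compound-stimulated 90 min at 37 C in HBSS/10 mM HEPES/0.1% Tween-20 buffer; beta-galactosidase complementation read by luminescence after 1 h at ambient temperature. Dopamine 57 uM final (EC100) as control.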
TRPML1 blocker: qHTS for Inhibitors of the Human Mucolipin Transient Receptor Potential 1 (TRPML1); Mucolipin-1 (Homo sapiens), Q9GZU1; TRPML1-inducible cells, Ca2+ dye fluorescence, FDSS; stronger effect = lower value; inhibition of EC80 agonist-evoked calcium signal; activity change, negative = inhibition, % (test concentration not listed); 390,000 tested, 0.02% active; AID 624415, 2012; in the data active means activity change below about -50%; inconclusive means about -30% to -50%; inactive means above about -30%;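 also: stimulus is agonist 54-4 at its EC80 concentration; % is scaled to controls: 0 for no effect and ±100 for the full control effect; compound concentration not given in the record; the text of the record puts the active cut at -80%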
Target sequence (Q9GZU1 whole entry, looked up): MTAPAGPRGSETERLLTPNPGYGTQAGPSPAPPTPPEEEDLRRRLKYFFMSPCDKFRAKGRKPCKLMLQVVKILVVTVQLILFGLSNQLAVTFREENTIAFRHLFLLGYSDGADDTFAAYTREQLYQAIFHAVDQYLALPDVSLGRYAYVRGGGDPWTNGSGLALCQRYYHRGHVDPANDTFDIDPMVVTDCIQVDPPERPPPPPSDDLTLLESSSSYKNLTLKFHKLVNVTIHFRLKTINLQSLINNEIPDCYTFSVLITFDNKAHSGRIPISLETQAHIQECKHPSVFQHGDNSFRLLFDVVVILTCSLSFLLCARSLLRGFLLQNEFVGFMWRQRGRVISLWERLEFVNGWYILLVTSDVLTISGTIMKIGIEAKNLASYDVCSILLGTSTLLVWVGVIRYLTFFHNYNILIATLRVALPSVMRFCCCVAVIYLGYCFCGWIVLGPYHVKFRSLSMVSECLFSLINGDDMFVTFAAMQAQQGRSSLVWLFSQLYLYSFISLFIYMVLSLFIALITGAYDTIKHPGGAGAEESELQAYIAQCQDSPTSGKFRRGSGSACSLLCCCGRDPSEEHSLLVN
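TRPML1-DL cells, Tet-induced overnight (~16 h, 37 °C) at 1,500 cells/well, were loaded with Ca8 no-wash dye plus quencher for 45-90 min at room temperature. Compounds were pinned during FDSS kinetic reading; agonist 54-4 at EC80 (4 uM final) then added.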
PINK1 expr mod: A Quantitative High throughput Screen to Identify Chemical Modulators of PINK1 Expression | PINK1 immunofluorescence, high-content cytometry, 24 h | Potency, µM (titrated, usually from 76.6 µM), without a hit: top-dose activation (PINK1 increase), hits mostly activators | 410,000 tested, 0.2% active | AID 624263, 2012; active = well fitted activation curve with a large enough effect; inconclusive = small, poorly fitted or top-dose-only effect; inactive = flat fitted curve, though single readings scatter; cell line not stated here;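 also: potency is read from the fitted curve at half-maximal effect; % of control where 0% means no effect; nearly all actives have a fitted effect of over 65% in size; a mitochondrial uncoupler was the plate control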
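Compound titrations (5 concentrations, 24 h) on a stable cell line; DMSO and CCCP controls. Endpoint: fixed-cell PINK1 immunofluorescence with mitochondrial, cell and nuclear markers, scanned by microplate cytometer.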
Six1-Eya2 inh: qHTS Assay for Inhibitors of the Six1/Eya2 Interaction; 360,000 tested, 0.56% active; AlphaScreen GST-Six1/His-Eya2 binding, biochemical; stronger effect = lower value; control for the full effect not named in the record; AID 651725, 2012; activity change, % (test concentration not listed); in the data active = activity change below about -65%; inconclusive = about -30% to -65%; inactive = above about -30%; also: % is scaled to controls: 0 for no effect and ±100 for the full control effect; compound concentration not given in the record
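Compounds are tested against tagged Six1 and Eya2 proteins bridged by glutathione donor and nickel acceptor beads; after a one-hour incubation at 37 °C without light, AlphaScreen emission is recorded.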
TRPML1 agonist: qHTS for Agonists of the Human Mucolipin Transient Receptor Potential 1 (TRPML1). Mucolipin-1 (Homo sapiens), Q9GZU1. activation, % (concentration not given with the values). TRPML1-expressing cells, Ca2+ dye fluorescence, FDSS; host cell line not named in the record; reference of the full effect not given here. AID 624414, 2012. 410,000 tested, 0.12% active; in the data active = activation above about 50%; inconclusive = about 30% to 50%; inactive = below about 30%; also: 0% is about no effect; the text of the record puts the active cut at 80%
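Kinetic FDSS Ca2+ read in Tet-induced TRPML1-DL cells (ABD Ca8 dye plus quencher, 45-90 min RT loading): baseline, then compound, then 110 s agonist window; EC80 agonist 54-4 at 4uM final added afterwards for a 110 s antagonist window.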
* = called active by the depositor; ? = inconclusive; . = no result given; [ ] = another dose, or the depositor's remark.

Each structure is followed by: CtBP-E1A blk	D2 agonist	TRPML1 blocker	PINK1 expr mod	Six1-Eya2 inh	TRPML1 agonist
- COc1cccc(CN2CCN(C(=O)c3cc(-c4ccccn4)nc4ccc(Cl)cc34)CC2)c1
 : 19.5	-1.1	-5.0	6.1%	-8.8	0.0
- Oc1c(I)cc(I)c2cccnc12
 : -73.0*	7.2	-14.4	-0.5%	-66.6*	-0.7
- Nc1ccccc1SCC(=O)Nc1ccc(N2CCOCC2)cc1
 : -1.9	1.0	-2.9	0.0%	-3.3	-0.6
- Cc1cc(S(=O)(=O)Nc2ccc(C(=O)O)cc2)c(C)c(S(=O)(=O)c2ccc(Cl)cc2)c1
 : .	.	8.4	-0.2%	.	-0.2
- CC1(C)Cc2c(sc(NC(=O)C(=O)NCCCN3CCOCC3)c2C(N)=O)CO1
 : -2.6	-1.2	9.2	-0.4%	0.9	0.3
- CCCN(c1ccc(C(=O)OC)cc1)S(=O)(=O)c1ccccc1
 : 3.1	-1.1	15.5	2.3%	2.2	-0.7
- CC(C)(CO)CNC(=O)c1ccc2nc(Cc3cccc(Cl)c3)oc2c1
 : -2.2	-2.7	8.0	-0.5%	-16.7	-1.2
- Cc1ccccc1NC(=O)N1CCN(C/C=C/c2ccccc2)CC1
 : .	3.1	11.3	0.4%	-1.7	0.3
- CN1CCN(c2ccc(CNC(=O)c3ccc(-c4cnn(C)c4)c4ccoc34)cc2)CC1
 : -24.7	3.7	.	0.9%	?	-0.7
- Cc1ccc(-c2nc(NC(=O)CSc3ncnc4sc5c(c34)CCC(C)C5)ns2)cc1 (centres undefined)
 : .	.	2.1	0.2%	.	-0.1
- CN1C[C@@H]2[C@@H]3C(=O)N(Cc4ccccc4)C(=O)[C@@H]3[C@](Cc3ccccc3)(C1=O)N2C(=O)c1ccc(C(C)(C)C)cc1
 : -0.3	0.9	15.1	?	-1.3	1.2
- O=C(NCc1ccc(Cl)cc1)C1CCN(c2cnccn2)CC1
 : 3.0	-3.2	-4.7	4.4%	1.6	0.0
- COCCNC(=S)N/N=C(\C)c1cccc(OC)c1
 : 1.8	-1.9	10.6	-1.3%	-1.9	0.7
- Clc1ccc2c(N/N=C/c3cccc(Br)c3)ccnc2c1
 : -5.9	?	-5.8	-4.1%	0.5	2.4
- O=C(CS(=O)(=O)Cc1ccccc1)Nc1nnc(C(F)(F)F)s1
 : -2.9	-2.2	0.2	1.3%	1.9	2.8
- COc1ccc(Cc2nc3ccccc3n2Cc2ccccc2F)cc1
 : .	.	15.3	1.1%	.	3.1
- O=C(O)c1ccc(N/N=C/c2cn(Cc3ccccc3F)c3ccccc23)cc1
 : 0.1	1.6	-12.3	1.1%	-5.6	0.1
- COc1ccc(S(=O)(=O)N(C)C[C@@H]2OCCCC[C@@H](C)Oc3ccc(NS(=O)(=O)c4cccs4)cc3C(=O)N([C@H](C)CO)C[C@@H]2C)cc1
 : 5.6	-8.5	-19.0	3.0%	9.8	-0.5
- Cc1cc(NC(=O)CSc2nnnn2Cc2ccccc2)no1
 : -2.3	-2.1	-2.7	-1.9%	8.5	-0.6
- O=C(NC1CCCCCC1)c1cc(S(=O)(=O)N2CCOCC2)ccc1N1CCCCC1
 : 31.0	-1.9	100.9	?	15.0	0.4
- C=C(C)c1sc(-c2ccc(Cl)cc2)nc1C
 : 5.9	-2.7	-2.6	0.1%	8.4	1.4
- CCn1ccnc1C(O)c1cccc(OC)c1OC (centres undefined)
 : 1.0	-6.3	4.7	1.5%	-3.3	-0.8
- O=C(Nc1ccccc1C(=O)O)c1cc(S(=O)(=O)N2CCCCC2)cs1
 : ?	2.9	6.4	1.0%	?	0.3
- CCOC(=O)c1cc(C)n(-c2ccc(OC)c(OC)c2)c1C
 : -9.6	4.0	10.2	3.1%	-27.9	1.4
- COc1cc(OC)cc(C(=O)N2CCC(N3CCCCCC3)CC2)c1
 : -16.3	-0.6	-3.6	0.4%	0.0	1.3
- COc1ccccc1Nc1cc(C(=O)NCCCN(C)C2CCCCC2)c2ccccc2n1
 : .	.	24.0	-0.3%	.	1.4
- COc1ccc(C)cc1Nc1nnc(C)c(=O)[nH]1
 : 5.5	-0.5	4.1	-2.2%	-0.8	1.2
- Cc1ccc(Cl)cc1Nc1nn2c(=O)c3ccc(C(=O)NCc4ccc(F)cc4)cc3nc2s1
 : .	.	-10.0	-0.1%	.	0.0
- O=c1cc(CO)oc(CN2CCN(c3ccccc3F)CC2)c1O
 : -1.7	-0.3	-4.6	9.0%	-4.1	-0.8
- CC(C)(C)c1ccc(C(=O)C2CC2)cc1
 : 4.9	2.7	3.7	3.0%	2.4	0.8
- Cc1cc(-c2ccccc2)nc(N/N=C/c2ccc(O)cc2)n1
 : -16.4	1.7	-2.4	10.5%	-16.7	-1.0
- COc1ccc(CCn2c(=O)c3cccnc3n(CC(=O)Nc3cccc(C)c3)c2=O)cc1OC
 : .	.	27.3	-1.9%	.	-0.3
- NC(=O)Cn1c(=O)n(CCCCCC(=O)NCc2ccccc2)c(=O)c2sccc21
 : .	.	-15.6	1.6%	.	2.5
- CCN(CC(=O)Nc1ccc2c(c1)OCCO2)CC(=O)Nc1cc(C)on1
 : 0.0	-3.2	23.5	0.3%	24.2	1.4
- CCC1(c2ccc(OC)cc2)NC(=O)N(CC(=O)NC2CCCCC2C)C1=O (centres undefined)
 : 3.5	-3.0	1.1	1.4%	1.9	0.1
- Cc1cc(C)c2c(N)c3ccccc3nc2n1
 : -17.5	-3.4	-3.1	-4.2%	-23.5	8.1
- CNc1nc(-c2c[nH]c3ccccc23)cs1
 : 92.6	-5.3	2.7	1.8%	90.0	0.2
- CCCCn1c(N)c(N(C)C(=O)C2CC(=O)N(Cc3ccco3)C2)c(=O)[nH]c1=O (centres undefined)
 : 3.0	-2.9	-2.7	2.9%	0.7	-0.3
- COc1ccc(NC(=O)c2ccco2)cc1NC(=O)c1ccccc1F
 : 0.0	-3.3	-2.3	1.4%	3.1	1.6
- CCOC(=O)N1CCC(NC(=O)C2CCCN2C(=O)OCc2ccccc2)CC1 (centres undefined)
 : 1.4	1.8	-4.6	4.9%	12.0	0.2
- COc1ccc(C(=O)OCC(=O)Nc2nnc(-c3ccccc3)o2)cc1
 : ?	-3.7	6.4	-0.2%	?	0.0
- COCCCNC(=S)N1CCN(S(=O)(=O)c2ccc(OC)cc2)CC1
 : .	0.9	5.2	-0.7%	-13.7	-0.6
- CC(=O)N1CCc2cc(S(=O)(=O)NC(Cc3ccccc3)C(=O)NCc3ccccc3Cl)ccc21 (centres undefined)
 : .	.	13.4	0.1%	.	0.8
- COc1ccc(CCn2nnnc2C(C(C)C)N2CCN(c3ncccn3)CC2)cc1OC (centres undefined)
 : 30.3	-0.2	-5.6	2.9%	19.0	0.3
- O=C(CN1CCN(S(=O)(=O)c2ccc(Cl)cc2)CC1)Nc1ccc2c(c1)OCCO2
 : -7.0	-2.0	8.5	-1.6%	-12.3	-0.8
- O=C(COc1cccc2ccccc12)N1CCN(c2ccccn2)CC1
 : -12.4	0.9	-14.3	-5.5%[38.3 µM]	-7.2	0.7
- COc1cc(CNC(=O)c2cnc3c(-c4cccc(C)c4)c(C)nn3c2C)cc(OC)c1OC
 : .	.	11.6	2.2%	.	1.5
- CCc1ccccc1NC(=O)CC(C)S(=O)(=O)c1ccc2c(c1)NC(=O)CO2 (centres undefined)
 : .	.	14.8	1.6%	.	3.9
- N/C(CN1CCCC1=O)=N\O
 : 1.8	1.7	12.4	-1.7%	2.8	0.9
- CC(C)c1ccc(S(=O)(=O)N2CCN(C(=O)c3ccncc3)CC2)cc1
 : 0.3	-5.6	-2.1	0.8%	10.0	-0.1
- Cc1cccc(-c2cnc(C(O)c3ccc(Cl)cc3C)[nH]2)c1 (centres undefined)
 : -12.6	-3.4	.	5.4%	-16.5	-0.3
- Cc1ccc(N2CC(C(=O)OCC(=O)Nc3ccccc3C)CC2=O)cc1 (centres undefined)
 : .	-2.1	-5.8	1.2%	1.6	-0.8
- CCOc1ccccc1NC(=O)CCn1ccnc1
 : 15.7	-4.4	-8.0	0.8%	1.4	0.3
- O=C(NCc1ccc2c(c1)OCO2)c1cccc(S(=O)(=O)N2CCCCC2)c1
 : -9.8	0.2	31.1	0.3%[38.3 µM]	-3.8	0.9
- Cc1ccc(NC(=O)Nc2nnc(-c3ccncc3)s2)cc1
 : -19.3	11.9	-10.2	15.8µM*	2.4	0.6
- CC(C)N1CCN(Cc2ccc(-c3ccccc3Cl)o2)CC1CCO (centres undefined)
 : .	-5.2	16.7	1.6%	-2.0	0.8
- COc1ccc(OC)c(Nc2ncnc3c2cnn3-c2ccc(C)cc2)c1
 : .	.	-1.2	4.2%	.	1.1
- CCN(CC)S(=O)(=O)c1cc(C(=O)OCC(=O)Nc2cccc(S(=O)(=O)N(C)C)c2)ccc1F
 : -12.6	3.9	22.0	3.2%	-18.3	2.6
- O=C(Nc1ccc(Br)cn1)c1ccc(COc2c(F)c(F)cc(F)c2F)o1
 : 4.2	0.1	-1.1	5.5%	5.3	0.7
- CCN(C(=O)Cn1nnc2sc(-c3ccccc3)cc2c1=O)c1cccc(C)c1
 : .	.	19.6	-0.1%	.	2.6

More entries follow:
Each structure is followed by: CtBP-E1A blk	D2 agonist	TRPML1 blocker	PINK1 expr mod	Six1-Eya2 inh	TRPML1 agonist
- CC1(C)c2[nH]c3ccccc3c2C[C@H]2C(=O)N(N)CC(=O)N21
 : 2.9	1.5	-10.9	0.4%	6.1	-0.5
- COCC(=O)N1C[C@H]2CON(C)[C@H]2C[C@H]1c1cccc(-c2ccc(C#N)cc2)c1
 : 2.0	1.1	-14.3	0.1%	6.0	-0.6
- CN(C(=O)c1ccc(NC(=O)Cc2ccc([N+](=O)[O-])cc2)cc1)C1CCCC1
 : 3.3	-1.8	-19.9	1.3%	10.6	6.1
- O=C1NC[C@H](CCCCN2CCN(CCc3ccc(O)cc3)C(=O)C2=O)N(CCc2ccc(O)cc2)C1=O
 : 0.5	.	.	1.1%	-5.4	-0.3
- COc1cccc(C(=O)NCCS(=O)(=O)N2CCN(C(=O)c3ccco3)CC2)c1
 : -14.5	7.5	1.6	-0.4%	9.3	1.3
- Cc1nn2c3ccccc3nc2n(C)c1=O
 : 8.4	-4.3	23.1	-6.4%	10.4	-0.5
- C=CCOC(=O)C1=C(C)Nc2nnnn2C1c1cccs1 (centres undefined)
 : 4.1	-2.0	-4.2	-2.3%[38.3 µM]	-0.6	0.7

Screening data (PubChem)
